Screening results as filed in PubChem BioAssay.
E coli growth – E. coli growth inhibition, primary screen, OD600; OD600 absorbance (test concentration not listed); Escherichia coli growth, 23 h; active compounds read low; hit rate 0.21% among 330,000;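 active = OD600 absorbance below the run mean of sample wells minus 3.6 SD, in any replicate, cut at about 0.56 in these data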;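 also: stock transfer was 300 nL into about 60 µL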
HNF4A DNA FP – change in binding of human HNF4A to DNA, primary screen, biochemical, fluorescence polarization, FITC-DNA. Hepatocyte nuclear factor 4-alpha (Homo sapiens), P41235. 1 h. activity change, % at 10 µM. hit rate 0.3% among 360,000. AID 1224865, 2016; in the data active = activity change above about 30%, passing the limit was not always enough;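 also: controls were the assay level and a saturating level of protein; the project sought stronger binding though the title names inhibitors; some compounds called inactive have numbers as strong as hits; positive values seem to mean higher polarization but the record does not say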
Target sequence (P41235 whole entry, looked up): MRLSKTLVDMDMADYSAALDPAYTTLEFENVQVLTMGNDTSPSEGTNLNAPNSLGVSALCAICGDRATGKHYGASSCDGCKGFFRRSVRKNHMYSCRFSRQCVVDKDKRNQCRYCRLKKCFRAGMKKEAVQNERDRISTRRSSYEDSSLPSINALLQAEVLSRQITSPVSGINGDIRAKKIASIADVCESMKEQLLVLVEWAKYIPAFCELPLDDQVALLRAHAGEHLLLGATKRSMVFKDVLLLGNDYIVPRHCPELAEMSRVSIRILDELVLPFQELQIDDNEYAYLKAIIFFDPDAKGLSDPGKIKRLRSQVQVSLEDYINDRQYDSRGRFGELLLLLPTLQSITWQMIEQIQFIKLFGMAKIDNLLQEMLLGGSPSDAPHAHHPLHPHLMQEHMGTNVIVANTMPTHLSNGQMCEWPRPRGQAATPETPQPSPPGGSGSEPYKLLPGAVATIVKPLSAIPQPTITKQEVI
Beta2AR agonist – beta2AR agonists driving receptor internalization, primary screen, cell-based, FAP fluorogen, flow cytometry | Am2.2-beta2AR cells; reference of the scale not given here | hit rate 0.43% among 340,000 | Beta-2 adrenergic receptor (Homo sapiens), P07550 | response, % (no concentration beside the values);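 active = response above a set limit, near 3 SD of response in nonfluorescent compounds, cut at about 42% in these data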;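 also: stock transfer was 100 nL into about 11 µL; a reference agonist was the positive control; negative values mostly stem from fluorescent compounds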
ALR H2O2 inh – inhibitors of human ALR sulfhydryl oxidase, primary screen, biochemical, H2O2 detection, HRP-luminol luminescence, single point; purified ALR, DTT oxidation; inhibition, % (concentration not given with the values); hit rate 3.8% among 290,000;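 active = mean and each replicate at 75% or more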;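 also: stock transfer was 7.5 nL into about 7.5 µL; 0% = neutral wells and 100% = wells with inactivated enzyme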
Target sequence (P55789 whole entry, looked up): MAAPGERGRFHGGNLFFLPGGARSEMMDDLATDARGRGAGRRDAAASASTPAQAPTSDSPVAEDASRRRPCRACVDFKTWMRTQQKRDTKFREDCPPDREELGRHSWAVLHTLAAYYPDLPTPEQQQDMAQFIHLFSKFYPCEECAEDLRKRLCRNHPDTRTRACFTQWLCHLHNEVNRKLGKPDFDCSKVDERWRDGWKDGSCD
UCH37 DUB inh – inhibitors of human UCH37 deubiquitinase, primary screen, biochemical, Ub-AMC cleavage, fluorescence | hit rate 0.33% among 330,000 | Ubiquitin carboxyl-terminal hydrolase isozyme L5 (Homo sapiens), Q9Y5K5 | purified proteasome/UCH37 | inhibition, % (test concentration not listed) | AID 588478, 2011;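 active = mean of two replicates above 20%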;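 also: 0% = compound-free wells with enzyme and 100% = wells lacking proteasome; stock transfer was 100 nL into about 20 µL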
Target sequence (Q9Y5K5 whole entry, looked up): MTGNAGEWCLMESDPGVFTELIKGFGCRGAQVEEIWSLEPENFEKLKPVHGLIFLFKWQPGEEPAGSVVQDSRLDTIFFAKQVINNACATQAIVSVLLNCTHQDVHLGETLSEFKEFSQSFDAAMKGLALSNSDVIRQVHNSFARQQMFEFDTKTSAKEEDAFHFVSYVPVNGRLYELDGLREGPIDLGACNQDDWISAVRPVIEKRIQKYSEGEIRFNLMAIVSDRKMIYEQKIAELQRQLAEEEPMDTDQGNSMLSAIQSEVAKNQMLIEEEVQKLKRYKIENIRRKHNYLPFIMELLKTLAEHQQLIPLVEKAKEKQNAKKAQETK
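Schedule: 30 min plus 25 min, room temperature / Material: human UCH37 within purified proteasomes / Technique: AMC fluorescence intensity at 355/460 nm / Buffer or medium: pH 7.4 Tris-HCl (50 mM) with ovalbumin, ATP-MgCl2, DTT / Controls: wells without proteasome as full block, compound-free enzyme plus substrate as uninhibited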
FGF22 binding – binders of human FGF22 protein, primary screen, FGF22 synaptogenesis inhibitor project, biophysical, thermal shift, single point | Fibroblast growth factor 22 (Homo sapiens), Q9HCT0 | recombinant FGF22 thermal shift, SYPRO orange fluorescence; percent of sucrose octasulfate shift, DMSO zero | calls only at 9.99 µM | hit rate 1.5% among 340,000 | AID 651658, 2012;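 active = melting point raised past a set limit in the mean and every replicate; three in four hits are not shown here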
rRNA inh HTS – reduced GFP signal of wild-type E. coli, primary screen, bacterial rRNA inhibitor project, GFP/RFP fluorescence, OD600, single point. GFP signal change (wild-type ribosome), % (no concentration beside the values). hit rate 1.6% among 350,000. E. coli WT GFP vs humanized-ribosome RFP mutants, 24 h; active compounds read low; DMSO median 0, no signal -100;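 active = significant combined selectivity score with lowered wild-type GFP, culture density cut under 30%, mutant RFP and density less affected; inactive = any of these conditions unmet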; also: one replicate is shown; some compounds called inactive have numbers as strong as hits
rRNA inh HTS OD600 – recorded beside rRNA inh HTS, whose call it bears; OD600 change, %; measured here: OD600 growth;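 optical density of the mix in the first replicate; 0 = DMSO median and -100 = no signal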
rRNA inh HTS RFP – second read-out of rRNA inh HTS, no call of its own (marks repeat the call); RFP signal change, %; measured here: RFP humanized mutant strains;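 first replicate; 0 = DMSO median and -100 = no signal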
* = called active by the depositor.

Results for COc1cc(C2CC(=O)Oc3c(C(CCN4CCN(c5ccccc5)CC4)c4ccc(N(C)C)cc4)c(OC)cc(OC)c32)cc(OC)c1OC (stereo not drawn) ?
E coli growth: 0.685; HNF4A DNA FP: -2.6; Beta2AR agonist: 1.4; ALR H2O2 inh: -8.7; UCH37 DUB inh: 0.9; FGF22 binding: inactive; rRNA inh HTS: 7.6; rRNA inh HTS OD600: 5.8; rRNA inh HTS RFP: -0.7

What do the screens show for `c1ccc(-c2nnn(C34CC5CC(CC(C5)C3)C4)n2)cc1`?
E coli growth: 0.704; HNF4A DNA FP: 4.6; Beta2AR agonist: -7.7; ALR H2O2 inh: -2.9; UCH37 DUB inh: 1.1

What do the screens show for `CCC(C)(C)C1CCC2(CC1)NC(=O)N(CC(=O)N(C)Cc1ccc3c(c1)OCCO3)C2=O` (stereo not drawn)?
E coli growth: 0.646; HNF4A DNA FP: -23.9; Beta2AR agonist: 1.6; ALR H2O2 inh: -0.8; UCH37 DUB inh: -2.4; FGF22 binding: inactive; rRNA inh HTS: 4.1; rRNA inh HTS OD600: 7.1; rRNA inh HTS RFP: 0.5

How did CCOC(=O)c1sc(-c2ccccc2)nc1C do in these assays?
E coli growth: 0.655; HNF4A DNA FP: -0.2; Beta2AR agonist: 1.9; ALR H2O2 inh: -2.5; UCH37 DUB inh: 0.4; FGF22 binding: inactive; rRNA inh HTS: 3.4; rRNA inh HTS OD600: 2.8; rRNA inh HTS RFP: -0.9

What do the screens show for `COC(=O)c1cc(=O)n2c(-c3ccccc3)csc2n1`?
E coli growth: 0.703; HNF4A DNA FP: 0.2; Beta2AR agonist: -4.2; ALR H2O2 inh: -2.1; UCH37 DUB inh: 1.9

What do the screens show for `NS(=O)(=O)c1cc2c(cc1Cl)NC(Cc1ccccc1)NS2(=O)=O` (stereo not drawn)?
E coli growth: 0.642; HNF4A DNA FP: 6.1; Beta2AR agonist: -3.9; ALR H2O2 inh: -3.8; UCH37 DUB inh: 2.2; FGF22 binding: inactive; rRNA inh HTS: 14.1; rRNA inh HTS OD600: 15.3; rRNA inh HTS RFP: -1.1

How did NC(=O)CSc1nc(-c2ccccc2)nc2ccccc12 do in these assays?
E coli growth: 0.683; HNF4A DNA FP: 3.9; Beta2AR agonist: -1.6; ALR H2O2 inh: -11.1; UCH37 DUB inh: 4.6; FGF22 binding: inactive; rRNA inh HTS: 7.5; rRNA inh HTS OD600: 6.7; rRNA inh HTS RFP: -0.8

Results for Clc1ccc(-c2cccc3nccn23)cc1 ?
HNF4A DNA FP: -0.7; FGF22 binding: inactive; rRNA inh HTS: -2.4; rRNA inh HTS OD600: 1.3; rRNA inh HTS RFP: -5.8

What do the screens show for `CCOC(=O)NC(=O)CSc1ccccn1`?
E coli growth: 0.661; HNF4A DNA FP: -1.5; Beta2AR agonist: -5.5; UCH37 DUB inh: 0.7; FGF22 binding: inactive; rRNA inh HTS: 5.8; rRNA inh HTS OD600: 10.1; rRNA inh HTS RFP: -3.0

What do the screens show for `Cc1nc(-c2ccccc2)c(-c2ccccc2)[nH]1`?
E coli growth: 0.679; HNF4A DNA FP: 1.5; Beta2AR agonist: -0.7; ALR H2O2 inh: 14.7; UCH37 DUB inh: 0.8

How did COc1ccccc1C(=O)N(CCN(C)C)c1nc2cc(C)cc(C)c2s1 do in these assays?
E coli growth: 0.661; HNF4A DNA FP: 0.7; Beta2AR agonist: 26.2; ALR H2O2 inh: -20.1; UCH37 DUB inh: 6.4; FGF22 binding: inactive; rRNA inh HTS: -13.6; rRNA inh HTS OD600: -6.3; rRNA inh HTS RFP: 19.1

What do the screens show for `COC(=O)[C@]12CCCCC=C1N(Cc1cccc3ccccc13)C(=O)[C@H](CC(=O)N1CCN(C(=O)c3ccco3)CC1)C2`?
HNF4A DNA FP: 0.1; FGF22 binding: inactive; rRNA inh HTS: -13.2; rRNA inh HTS OD600: -11.4; rRNA inh HTS RFP: 9.1

What do the screens show for `Nc1nonc1-c1noc(CCCN2C(=O)c3ccccc3C2=O)n1`?
E coli growth: 0.671; HNF4A DNA FP: -2.5; Beta2AR agonist: 8.6; ALR H2O2 inh: -1.4; UCH37 DUB inh: -0.1

How did Cc1c(NC(=O)COC(=O)CSc2ccc(C(N)=O)cc2[N+](=O)[O-])c(=O)n(-c2ccccc2)n1C do in these assays?
E coli growth: 0.688; HNF4A DNA FP: -0.5; Beta2AR agonist: -9.1; ALR H2O2 inh: 2.1; UCH37 DUB inh: 2.9; FGF22 binding: inactive; rRNA inh HTS: -8.0; rRNA inh HTS OD600: -13.0; rRNA inh HTS RFP: 21.2

How did C[C@@H](CC#N)CN1CC[C@H](C(C)(C)C)CCC1=O do in these assays?
HNF4A DNA FP: 0.0; Beta2AR agonist: 3.1; ALR H2O2 inh: 3.2; UCH37 DUB inh: 0.3; FGF22 binding: inactive; rRNA inh HTS: 12.9; rRNA inh HTS OD600: 5.9; rRNA inh HTS RFP: 0.7

How did COc1ccc(CCN(C)C(=O)CN2C(=O)NC3(CCCCCC3)C2=O)cc1OC do in these assays?
E coli growth: 0.625; HNF4A DNA FP: 0.4; Beta2AR agonist: -1.3; ALR H2O2 inh: -15.3; UCH37 DUB inh: 3.0; FGF22 binding: inactive

How did O=C(Cn1c(/C=C/c2ccccc2)nc2ccccc21)Nc1ccc(F)cc1 do in these assays?
E coli growth: 0.733; HNF4A DNA FP: 0.7; Beta2AR agonist: 3.9; ALR H2O2 inh: -7.1; UCH37 DUB inh: -288.5

How did CC(=O)N1CCc2c(sc(NC(=O)c3ccc([N+](=O)[O-])o3)c2C#N)C1 do in these assays?
E coli growth: 0.67; HNF4A DNA FP: -4.7; Beta2AR agonist: 9.5; UCH37 DUB inh: 19.3; FGF22 binding: inactive; rRNA inh HTS: -5.0; rRNA inh HTS OD600: -2.3; rRNA inh HTS RFP: -0.4

Results for COc1ccc(Nc2nc(N)nc(CSC(=S)N3CCCCC3C)n2)cc1 (stereo not drawn) ?
E coli growth: 0.65; HNF4A DNA FP: -0.7; Beta2AR agonist: -11.4; ALR H2O2 inh: -0.9; UCH37 DUB inh: 3.7; FGF22 binding: inactive; rRNA inh HTS: -22.4*; rRNA inh HTS OD600: -11.9*; rRNA inh HTS RFP: -2.6*

Results for CN1CCN(C(=O)C2=C[C@H](c3ccccc3)C[C@H](OCc3ccc(CO)cc3)O2)CC1 ?
HNF4A DNA FP: 1.5; Beta2AR agonist: -5.9; ALR H2O2 inh: -8.5; UCH37 DUB inh: 1.6; FGF22 binding: inactive; rRNA inh HTS: 7.4; rRNA inh HTS OD600: 5.5; rRNA inh HTS RFP: 1.7

How did CCn1nnc(-c2ccccc2NC(=O)C(F)(F)F)n1 do in these assays?
E coli growth: 0.724; HNF4A DNA FP: 0.4; Beta2AR agonist: -2.4; ALR H2O2 inh: -6.2; UCH37 DUB inh: 4.0; FGF22 binding: inactive; rRNA inh HTS: 0.4; rRNA inh HTS OD600: -4.5; rRNA inh HTS RFP: 3.0

What do the screens show for `CCc1c(C)nc(N2CCOCC2)[nH]c1=O`?
E coli growth: 0.721; HNF4A DNA FP: -1.5; Beta2AR agonist: 3.4; ALR H2O2 inh: -4.0; UCH37 DUB inh: 1.3; rRNA inh HTS: 7.2; rRNA inh HTS OD600: 11.8; rRNA inh HTS RFP: -1.2

Results for CCOc1cccc(CN2CCCC(CCC(=O)NCc3ccccc3F)C2)c1O (stereo not drawn) ?
E coli growth: 0.677; HNF4A DNA FP: 0.5; Beta2AR agonist: -2.5; ALR H2O2 inh: -5.9; UCH37 DUB inh: -2.1; FGF22 binding: inactive; rRNA inh HTS: 3.0; rRNA inh HTS OD600: -6.4; rRNA inh HTS RFP: 0.3

How did CC(CCCC(C)(C)O)NCc1cn[nH]c1-c1ccc2c(c1)OCO2 (stereo not drawn) do in these assays?
E coli growth: 0.678; HNF4A DNA FP: -0.8; Beta2AR agonist: 2.9; ALR H2O2 inh: -14.0; UCH37 DUB inh: 1.7; rRNA inh HTS: 18.3; rRNA inh HTS OD600: 9.7; rRNA inh HTS RFP: -0.1

Results for Cn1cnnc1SCC(=O)N1CCc2ccccc21 ?
E coli growth: 0.713; HNF4A DNA FP: -2.4; Beta2AR agonist: -0.8; ALR H2O2 inh: -1.6; UCH37 DUB inh: -0.1

How did Cc1nnsc1C(=O)NC(C)c1ccccc1 (stereo not drawn) do in these assays?
E coli growth: 0.693; HNF4A DNA FP: 1.1; Beta2AR agonist: -9.6; ALR H2O2 inh: 4.1; UCH37 DUB inh: 4.7; FGF22 binding: inactive; rRNA inh HTS: 4.7; rRNA inh HTS OD600: 5.9; rRNA inh HTS RFP: 4.5

What do the screens show for `O=C(N/N=C/c1ccc[nH]1)c1ccc(Cl)cc1`?
HNF4A DNA FP: 2.3; Beta2AR agonist: -5.7; ALR H2O2 inh: -3.3; FGF22 binding: inactive; rRNA inh HTS: 8.4; rRNA inh HTS OD600: 7.6; rRNA inh HTS RFP: 3.8

How did Cc1sc2ncnc(NCCCO)c2c1C do in these assays?
E coli growth: 0.691; HNF4A DNA FP: -0.2; Beta2AR agonist: -7.7; ALR H2O2 inh: 12.9; UCH37 DUB inh: -0.5; FGF22 binding: inactive; rRNA inh HTS: -0.3; rRNA inh HTS OD600: -11.1; rRNA inh HTS RFP: 0.8

What do the screens show for `O=c1c(Cc2c(F)cccc2Cl)c(O)ccn1CCCn1ccnc1`?
E coli growth: 0.636; HNF4A DNA FP: 0.8; Beta2AR agonist: -3.0; ALR H2O2 inh: 1.6; UCH37 DUB inh: 0.1; FGF22 binding: inactive; rRNA inh HTS: 16.3; rRNA inh HTS OD600: 15.3; rRNA inh HTS RFP: -5.7

What do the screens show for `Cc1ccc(C)c(NC(=S)N2CCN(S(=O)(=O)c3ccccc3)CC2)c1`?
E coli growth: 0.648; HNF4A DNA FP: 1.9; Beta2AR agonist: -7.4; ALR H2O2 inh: -4.6; UCH37 DUB inh: -0.3; FGF22 binding: inactive; rRNA inh HTS: -7.0; rRNA inh HTS OD600: -12.7; rRNA inh HTS RFP: -0.3

How did COc1ccc2oc(-c3ccco3)cc(=O)c2c1 do in these assays?
E coli growth: 0.686; HNF4A DNA FP: 2.7; Beta2AR agonist: 5.8; UCH37 DUB inh: -413.3; FGF22 binding: inactive; rRNA inh HTS: 14.5; rRNA inh HTS OD600: 9.3; rRNA inh HTS RFP: 3.6

What do the screens show for `Cn1cc(C(=O)NC2CCCCCC2)c(=O)c2cc(S(=O)(=O)N3CCCC3)ccc21`?
E coli growth: 0.643; HNF4A DNA FP: 0.4; Beta2AR agonist: -8.1; ALR H2O2 inh: -8.0; UCH37 DUB inh: 1.7

Results for CCNC(=O)Cc1c(OC)ccc2cc(Br)ccc12 ?
E coli growth: 0.718; HNF4A DNA FP: 6.2; Beta2AR agonist: -5.6; ALR H2O2 inh: -5.5; UCH37 DUB inh: 2.4; FGF22 binding: inactive; rRNA inh HTS: 7.7; rRNA inh HTS OD600: 1.0; rRNA inh HTS RFP: -0.7

A portion of the library, so the mix of outcomes need not match the whole.
